# AID504770 = E. coli YBA685 growth inhibition, screen for V. cholerae RctB inhibitors; E. coli YBA685 rctB-dependent plasmid, OD600 growth, 3 h; hits give low values; z-score (concentration not given with the values); 130,000 compounds, 0.27% hits; AID 504770;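 active = z-score under -2 on both plates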;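 also: wells of about 30 µL received 100 nL stock; score is relative to mean and SD of the test wells; the first replicate is given; strong numbers were not always called active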
# CapD inh = CapD enzyme inhibition; 140,000 compounds, 0.23% hits; purified CapD enzyme, fluorescence intensity read-out; hits give low values; some hits fall short of the stated cut; z-score (concentration not given with the values);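 active = z-score under -4 in either of two replicates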;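 also: stock transfer was 100 nL into about 40 µL; score is relative to mean and spread of the plate; one replicate is shown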
# Numbers without * were called inactive; i = inactive; / = no result given; & = joins results of further samples. This is a subset; count on the stated rates, not on these rows.
smiles | AID504770 | CapD inh
COc1ccc(CCNC(=O)CSc2nc(-c3ccco3)cc(C(F)(F)F)n2)cc1OC | 1.4 | -1.8
Cc1onc(-c2ccccc2)c1C(=O)N(Cc1ccc(N(C)C)cc1)C(C)C | 0.65 | -0.27
CC(C(=O)Nc1ccnn1C(C)C)N(C)CC(=O)Nc1ccccc1Cl (configuration not stated) | 0.15 | /
CC(Sc1nc2ccccc2c(=O)[nH]1)C(=O)Nc1ccc2c(c1)OCO2 (configuration not stated) | 1.6 | /
COc1ccccc1N1CCN(CCCC#N)CC1 | 0.2 | 0.84
N#CCCN(Cc1ccccc1)C(=O)C1CCN(c2nccc(C(F)(F)F)n2)CC1 | -0.9 | 0.66
NC(=O)N/C(CSCc1ccc(Cl)cc1)=N/O | -0.7 | 0.66
COc1ccc(NC(=S)N2c3ccc(C)cc3C3CN(C)CCC32)cc1 (configuration not stated) | / | -0.29
COC(=O)c1cnc(N(C)Cc2ccccc2)c2ccccc12 | -1.1 | 5.6
CCOC(=O)N1CCC(N2Cc3cccc(C(=O)N4CCN(c5cccc(C)c5C)CC4)c3C2=O)CC1 | -0.15 | 4.8
Cn1c(-c2sc3cc(C(F)(F)F)cnc3c2-c2cccnc2)n[nH]c1=S | / | -1.1
Cc1nsc(-c2ccc(Cl)cc2)n1 | -1.1 | 0.67
CC(C)=CC(=O)Nc1nnc(Sc2ccnc3cc(Cl)ccc23)s1 | -0.2 | 0.31
Cc1ccc(NC(=O)Cn2c(=O)n(CCc3ccccc3)c(=O)c3ccccc32)cc1 | 0.1 | 0.33
Cc1[nH]n(-c2ccccc2)c(=S)c1C=Nc1cccc(Br)c1 | -0.6 | -0.095

# The list goes on; the last four above are carried over.
smiles | AID504770 | CapD inh
Cc1nsc(-c2ccc(Cl)cc2)n1 | -1.1 | 0.67
CC(C)=CC(=O)Nc1nnc(Sc2ccnc3cc(Cl)ccc23)s1 | -0.2 | 0.31
Cc1ccc(NC(=O)Cn2c(=O)n(CCc3ccccc3)c(=O)c3ccccc32)cc1 | 0.1 | 0.33
Cc1[nH]n(-c2ccccc2)c(=S)c1C=Nc1cccc(Br)c1 | -0.6 | -0.095
CCSc1ncnc2sc3c(c12)CCCC3 | -0.45 | -0.25&0.43
CCOC(=O)c1oc2nc(-c3ccccc3)cc(C)c2c1NC(=O)Nc1ccc(Cl)cc1 | 2.8 | 1.1
c1ccc(N2CCN(c3ccccc3)C2c2cccs2)cc1 | 0.3 | /
Cc1cccc(NC(=O)CC2S/C(=N/c3nccs3)N(C)C2=O)c1 (configuration not stated) | 1.1 | /
CCCCCC(=O)Nc1ccc(C(=O)CSc2nnc3n2CCCCC3)cc1 | -0.1 | /
CCN(CC)c1ncn(Cc2c(Cl)cccc2Cl)c2ncnc1-2 | -1.4 | -0.12
CC(=O)Oc1ccccc1C(=O)N1CCN(C(=O)c2ccc3cc[nH]c3c2)CC1 | / | 0.65
CCc1ccc(NC(=O)CCNS(=O)(=O)c2cccc3nsnc23)cc1 | / | 0.28
N#CC(c1ccccc1)c1ccc(C(=O)c2ccccc2)cc1 (configuration not stated) | 1.2 | -0.44
O=C(O)CSCC(=O)N1CCN(c2ccccc2F)CC1 | / | 0.27
COc1ccccc1/C=C1/N=C(c2ccc(OC)c(OC)c2)N(c2ccc(C)cc2C)C1=O | / | -2
CCCC(=O)NCCc1nc2ccccc2[nH]1 | -1.9 | -0.19
Cc1ccc2c(c1)c1c3n2CCN(C=O)C3CCC1 (configuration not stated) | -0.65 | 0.16
COc1ccc(CN2C(=O)CSC2c2ccccn2)cc1 (configuration not stated) | / | 0.62
O=C1CN(C2c3ccccc3CC2NS(=O)(=O)c2ccccc2)CCN1 (configuration not stated) | -0.1 | /
Cc1ccc(/C=N/n2cnnc2)o1 | 0.6 | -2.2
CNc1ccc(Cl)cc1C(=O)NCCc1ccccc1 | / | 83
O=C1CN(C(=O)CSc2cccc[n+]2[O-])c2ccccc2N1 | -0.75 | /
COc1cc(/C=c2\sc3nc4ccccc4n3c2=O)ccc1OCC(=O)Nc1cc(C)ccc1C | / | 0.23
O=C(O)c1ccc(-c2ccco2)n1Cc1ccccc1 | 1.1 | 0.76
O=C(CO)c1c[nH]c2ccccc12 | -0.35 | -0.34
COc1cc2nc(-n3nc(C)cc3C)n3nc(-c4ccccc4)nc3c2cc1OC | 1.1 | 0.005
CCOC(=O)C1CCCN(C(=O)c2ccc3c(c2)N(CC)CCS3)C1 (configuration not stated) | 1 | 7
Cc1ccc(/C=C2/SC(=S)N(C(C)C(=O)O)C2=O)o1 (configuration not stated) | -0.35 | -0.01
CCSC1(SCC)N=C(N)C2(C#N)C(c3ccc(NC(C)=O)cc3)C12C#N (configuration not stated) | -0.45 | -0.27
Fc1ccc2nc3c(nc2c1)c1ccccc1n3Cc1c(Cl)cccc1Cl | / | -1.5
O=S(=O)(NCc1ccco1)c1ccc(F)c(F)c1 | 0.45 | -0.065
O=C(Nc1cccc(C(=O)N2CCN(C(c3ccccc3)c3ccccc3)CC2)c1)c1ccco1 | -1.1 | -0.07
CC(=O)N1CCN(C(=O)COC(=O)c2ccc(C(C)C)cc2)CC1 | 1.2 | /
CCCCCCC1Oc2ccc([N+](=O)[O-])cc2C2OC(c3ccccc3)(c3ccccc3)c3ccccc3N12 (configuration not stated) | / | -0.73
O=c1c(Cl)c(N2CCOCC2)cnn1Cc1ccccc1 | 0.1 | /
Cc1ccc(OCc2nnc(SCC(=O)CC(=O)Nc3ccccc3)o2)cc1 | 0.2 | /
O=S(=O)(NCC1CC1)c1ccc(F)c(Cl)c1 | / | -0.15
Nc1ccc(C(=O)O)c(O)c1 | -0.05 | 1.1
O=C(C1CCCN(Cc2ccco2)C1)N1CCCCCC1 (configuration not stated) | -0.55 | -0.43
Clc1ccccc1OCc1nnc(-c2ccccc2)o1 | -1.1 | -0.4
CCN(C(=O)c1cnc2sccn2c1=O)c1ccccc1 | -0.95 | 64
Cc1ccccc1CN1C(=O)C(O)(CC(=O)/C=C/c2ccco2)c2ccccc21 (configuration not stated) | 0.8 | -0.44
CCn1c2ccccc2c2nnc(N3CCC(C)CC3)nc21 | -1.2 | -0.3
FC(F)(F)c1nc2ccccc2[nH]1 | / | 0.34
O=C(CSc1ncccc1C(=O)O)c1ccccc1 | / | -0.55
CC/C(=N\NC(=O)c1cc2c(C)nn(-c3ccccc3)c2s1)C(C)C | 1.5 | /
O=C(COC(=O)Cc1n[nH]c(=O)c2ccccc12)Nc1ccccc1 | 0.55 | /
O=C(Nc1ccc(-c2noc(-c3ccc(Br)o3)n2)cc1)c1ccco1 | / | 1.9
CCOC(=O)C1CCCN(C(=O)c2ccc3c(c2)N(C)CCS3)C1 (configuration not stated) | 0.75 | 20
CC(C)=NNc1nc(Cl)c(C#N)c(Cl)c1Cl | -0.6 | -0.61
Cc1cc(NC(=O)C(CC(C)C)NC(=O)C2CCC(C)CC2)ccc1Br (configuration not stated) | 0.35 | 23
Cc1c(NC(=O)CN(c2ccc(Cl)cc2Cl)S(=O)(=O)c2ccccc2)c(=O)n(-c2ccccc2)n1C | / | -0.52
Cn1cc(Br)c(-c2cccc(NC(=O)CCC(=O)O)c2)n1 | -0.95 | 0.01
O=C(NCCC1=CCCCC1)c1ccc(F)c(S(=O)(=O)N2CCOCC2)c1 | 0.4 | /
CCN(CC)c1ncnc2sc(C(=O)N3CCN(c4ccccc4)CC3)c(C)c12 | / | -0.6
c1nc(N2CCCCC2)c2c3c(sc2n1)CCC3 | 1.1 | -0.4
O=C(COc1ccccc1)Nc1nc(-c2ccc(Cl)cc2)cs1 | -0.2 | i
O=C(Sc1nnc(-c2ccco2)n1-c1ccccc1)c1c(F)cccc1F | -0.8 | /
CCCN(S(=O)(=O)c1ccc(S(=O)(=O)N(CC)CC)cc1)S(=O)(=O)c1ccc2c(c1)OCCO2 | -0.3 | /
CCOc1ccc(C2c3c(oc4ccc(F)cc4c3=O)C(=O)N2CC2CCCO2)cc1 (configuration not stated) | 1.9 | -0.96
C[C@]12CCC(=O)C=C1CC[C@@H]1[C@@H]2[C@@H](O)C[C@@]2(C)[C@H]1CC[C@]2(O)C(=O)CO | / | -0.35
CS(=O)(=O)c1ccc(CNC(=O)c2ccccc2S(C)(=O)=O)cc1 | / | -0.32
O=C(CCSC1=NCCS1)Nc1ccccc1Cl | -0.35 | /
CC1=C(C(=O)OC2C3CC4CC(C3)CC2C4)C(CC(=O)O)C(=O)N1 (configuration not stated) | -1.1 | /

# New compounds follow.
mol	AID504770	CapD inh
COC(=O)Cc1nc(-c2ccccc2)cs1	0.05	/
CC(C)Oc1ccccc1OCCCCn1cncn1	-0.6	0.47
CC1(C)CC(=O)c2c(nc(Cc3ccccc3)c3[nH]c4ccccc4c23)C1	/	12
Cc1ccc(NC(=O)CCCN2C(=O)/C(=C\c3ccc4c(c3)OCO4)SC2=S)cc1C	-1.1	-0.2
COCC(CN1CCN(C2=NS(=O)(=O)c3ccccc32)CC1)OC(=O)c1ccc(OC)cc1 (configuration not stated)	/	0.32
COc1ccc(C2=C(C)C(N3CCC(C(=O)NCc4ccccc4)CC3)=NS2(=O)=O)cc1	-2	-0.85
O=c1c2ccc(C(F)(F)F)cc2nc2n1CCC2	-0.9	/
CC(O)(CS(=O)c1ccc(Cl)cc1)C(=O)Nc1ccc(Cl)cc1 (configuration not stated)	/	-0.52
COc1ccc(NC(N)=O)cc1	1.8	/
COc1cc(OC)c(C2=NOC(C(=O)Nc3cc(C)nn3-c3ccccc3)C2)cc1Cl (configuration not stated)	0.05	2.6
Cc1cccc(-c2noc(CN(C(=O)CCC3CCCC3)C(C)C)n2)c1	-0.55	-0.47
C/C=C/C(=O)OCn1nnc2ccccc2c1=O	0.45	/
Cc1cc(Oc2ncccc2[N+](=O)[O-])c2cc(Cl)ccc2n1	/	0.08
Nc1cc(=O)[nH]c(=O)n1Cc1ccncc1	0	-0.05
Cc1ccc(C(C2C(=O)CC(C)(C)CC2=O)C2C(=O)CC(C)(C)CC2=O)s1	-0.4	-0.85
Cc1csc2c(=O)nc3c(C#N)n[nH]n3c12	-0.35	62
CN(C)c1ccc(CN2CCCCC2COC(=O)NCc2ccc3c(c2)CCO3)cc1 (configuration not stated)	/	0.005
CCC(=O)Nc1nc2c(s1)C(=O)CC(c1ccc(OC)cc1)C2 (configuration not stated)	1.4	-0.38
CCOc1cccc2c1OC(c1ccccc1Cl)N1N=C(c3ccc(OC)cc3)CC21 (configuration not stated)	/	-1.4
Cc1ccc(OCc2nnc(SCC(=O)N(C)c3ccccc3)n2-c2ccccc2)c2c1CCC2	/	0.13
CCOC(=O)c1ccc(NC(=O)CN(c2ccc(OC)cc2OC)S(=O)(=O)c2ccccc2)cc1	/	0.04
CCOC(=O)c1sc2ncnc(NCCC3=CCCCC3)c2c1C	/	12
CCn1c(SCC(=O)N/N=C/c2cccs2)nc2ccccc21	-0.65	-0.89
Cc1ccc(-c2csc(NC(=O)COC(=O)C3CC(=O)N(Cc4ccco4)C3)n2)cc1 (configuration not stated)	-0.95	/

# Four entries from above, with each value named:
Cc1ccc(-c2csc(NC(=O)COC(=O)C3CC(=O)N(Cc4ccco4)C3)n2)cc1 (configuration not stated)
  AID504770 = -0.95	CapD inh = /

CCOc1cccc2c1OC(c1ccccc1Cl)N1N=C(c3ccc(OC)cc3)CC21 (configuration not stated)
  AID504770 = /	CapD inh = -1.4

CCOC(=O)c1sc2ncnc(NCCC3=CCCCC3)c2c1C
  AID504770 = /	CapD inh = 12

CN(C)c1ccc(CN2CCCCC2COC(=O)NCc2ccc3c(c2)CCO3)cc1 (configuration not stated)
  AID504770 = /	CapD inh = 0.005

# Going on with the list:
mol	AID504770	CapD inh
CC12CCC(C1)C(C)(C)C2OCC(O)CN1CCN(c2ccccc2F)CC1 (configuration not stated)	0.4	-0.41
CC(SCSC(C)C(=O)O)C(=O)O (configuration not stated)	/	0.72
COc1ccc2nc(SCC(=O)NC3CCCCC3C)c(C#N)cc2c1 (configuration not stated)	-0.2	/
NC(=S)c1cnn2c(-c3cccc(C(F)(F)F)c3)ccnc12	/	-0.95
O=C(O)COCC(=O)N1CCN(Cc2ccc3c(c2)OCO3)CC1	-0.3	-0.04
CN1CCC(=NNC(N)=S)CC1	2.5	/
O=C1C(c2ccccn2)=C(O)c2ccccc21	/	-1.2
CCN=c1sc(CC(=O)O)c(-c2ccc(Cl)cc2)n1CC	0.55	/
COc1ccc(N2C(=O)NC(=O)/C(=C\c3cc(Br)c(N4CCOCC4)o3)C2=O)cc1	/	-0.01
NC12CCc3c(no[n+]3[O-])C1(O)CC(c1ccccc1)=[N+]2[O-] (configuration not stated)	-0.35	0.05
CCNC(=O)CCSc1nnc(-c2ccccc2C)o1	0.5	/
CC(C)Oc1ccc(C(=O)NC2CCS(=O)(=O)C2)cc1 (configuration not stated)	0.35	0.51
O=C(Nc1nccs1)C1CC2CCCC(C1)C2=O (configuration not stated)	1.2	-0.18
Cc1ccc(CNC(=O)CC2ON(C)C(=O)N2c2ccc(Cl)cc2)cc1 (configuration not stated)	/	0.54
CCOC(=O)CSc1nc2ccc(Nc3nc(N4CCOCC4)nc(N4CCOCC4)n3)cc2s1	/	0.62
Cc1ccc(CSc2ccccc2-c2nnc(-c3ccccc3)o2)cc1	/	0.65
COC(=O)C(Cc1cn(C(c2ccccc2)(c2ccccc2)c2ccccc2)cn1)NC(=O)OCCSCCNC(=O)c1sc2ccccc2c1Cl (configuration not stated)	/	0.17
CN(C)C(=O)COC(=O)C1c2ccccc2Oc2ccccc21	-0.1	/
CC(Nc1ccc(-n2cnnn2)cc1)C(=O)N1CCN(Cc2ccccc2)CC1 (configuration not stated)	0.55	/
